ALR H2O2 inh – blocks human ALR sulfhydryl oxidase activity; P55789; purified ALR, DTT oxidation, H2O2 HRP-luminol luminescence; inhibition, % (test concentration not listed); 290,000 tested, 3.8% active;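 active = mean and each replicate at 75% or more; inconclusive = only one of the two met; inactive = neither met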;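 also: stock transfer was 7.5 nL into about 7.5 µL; 0% = neutral wells and 100% = wells with inactivated enzyme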
Calb FLC – affects C. albicans growth with fluconazole | 300,000 tested, 0.57% active | C. albicans CaCi-2 (fluconazole-resistant clinical isolate) + fluconazole, Alamar Blue growth, 48 h | growth inhibition, % (test concentration not listed) | AID 1979;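 active = most replicates above 75%; inconclusive = exactly half above 75%; inactive = most below 75%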;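 also: all wells also contain fluconazole at 8 µg/ml as a sub-toxic cotreatment; 0% = median of DMSO wells and 100% = median of geldanamycin control wells; wells of about 8 µL received 7.5 nL stock; the first replicate is given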
T cruzi inh – blocks replication of Trypanosoma cruzi | T. cruzi beta-gal in NIH3T3, luminescence, 90 h | inhibition, % (no concentration beside the values) | 300,000 tested, 1.4% active | AID 1885;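 active = mean inhibition across valid replicates above about 55%, limit read from the data; inconclusive = mean below that limit but half or more replicates reach it; inactive = mean below it, under half of replicates reach it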;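 also: signal also drops with host cell toxicity which is not excluded here; 0% = plate median of DMSO wells and 100% = zero luminescence signal; higher percent means less beta-gal luminescence so fewer parasites; stock transfer was 50 nL into about 50 µL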
rRNA inh HTS – inhibits bacterial ribosomal RNA function over humanized ribosomes. E. coli WT GFP vs humanized-ribosome RFP mutants, fluorescence, 24 h; stronger effect = lower value; DMSO median 0, no signal -100. GFP signal change (wild-type ribosome), % (concentration not given with the values). 350,000 tested, 1.6% active;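 active = significant combined selectivity score with lowered wild-type GFP, culture density cut under 30%, mutant RFP and density less affected; inactive = any of these conditions unmet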; also: one replicate is shown; some compounds called inactive have numbers as strong as hits
Beta apoptosis – blocks beta cell apoptosis. protection from apoptosis, % (concentration not given with the values). INS-1E cytokine-induced death, ATP luminescence, 48 h; percent of positive-control rescue, neutral wells zero. 300,000 tested, 0.8% active;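 active = all replicates at 75% or more, or half of them and the mean; inconclusive = half reach 75% but not the mean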;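 also: 0% = cytokine-treated negative control wells and 100% = positive control rescue; higher means more ATP so stronger rescue from cytokine killing; wells of about 40 µL received 100 nL stock; the first replicate is given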
LANA-H2A inh – blocks KSHV LANA binding to histone H2A/H2B; Q9QR71; cell-free LANA-H2A/H2B peptide, fluorescence polarization; inhibition, % (concentration not given with the values); 320,000 tested, 0.6% active; in the data active = inhibition mostly above about 10%, no sharp cut-off; inactive = mostly below about 6.7%;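 also: stock transfer was 7.5 nL into about 10 µL; 0% = median of vehicle wells and 100% = median of positive control wells; one replicate is shown; the record names a cut of 25% in any replicate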
Target sequence (Q9QR71 whole entry, looked up): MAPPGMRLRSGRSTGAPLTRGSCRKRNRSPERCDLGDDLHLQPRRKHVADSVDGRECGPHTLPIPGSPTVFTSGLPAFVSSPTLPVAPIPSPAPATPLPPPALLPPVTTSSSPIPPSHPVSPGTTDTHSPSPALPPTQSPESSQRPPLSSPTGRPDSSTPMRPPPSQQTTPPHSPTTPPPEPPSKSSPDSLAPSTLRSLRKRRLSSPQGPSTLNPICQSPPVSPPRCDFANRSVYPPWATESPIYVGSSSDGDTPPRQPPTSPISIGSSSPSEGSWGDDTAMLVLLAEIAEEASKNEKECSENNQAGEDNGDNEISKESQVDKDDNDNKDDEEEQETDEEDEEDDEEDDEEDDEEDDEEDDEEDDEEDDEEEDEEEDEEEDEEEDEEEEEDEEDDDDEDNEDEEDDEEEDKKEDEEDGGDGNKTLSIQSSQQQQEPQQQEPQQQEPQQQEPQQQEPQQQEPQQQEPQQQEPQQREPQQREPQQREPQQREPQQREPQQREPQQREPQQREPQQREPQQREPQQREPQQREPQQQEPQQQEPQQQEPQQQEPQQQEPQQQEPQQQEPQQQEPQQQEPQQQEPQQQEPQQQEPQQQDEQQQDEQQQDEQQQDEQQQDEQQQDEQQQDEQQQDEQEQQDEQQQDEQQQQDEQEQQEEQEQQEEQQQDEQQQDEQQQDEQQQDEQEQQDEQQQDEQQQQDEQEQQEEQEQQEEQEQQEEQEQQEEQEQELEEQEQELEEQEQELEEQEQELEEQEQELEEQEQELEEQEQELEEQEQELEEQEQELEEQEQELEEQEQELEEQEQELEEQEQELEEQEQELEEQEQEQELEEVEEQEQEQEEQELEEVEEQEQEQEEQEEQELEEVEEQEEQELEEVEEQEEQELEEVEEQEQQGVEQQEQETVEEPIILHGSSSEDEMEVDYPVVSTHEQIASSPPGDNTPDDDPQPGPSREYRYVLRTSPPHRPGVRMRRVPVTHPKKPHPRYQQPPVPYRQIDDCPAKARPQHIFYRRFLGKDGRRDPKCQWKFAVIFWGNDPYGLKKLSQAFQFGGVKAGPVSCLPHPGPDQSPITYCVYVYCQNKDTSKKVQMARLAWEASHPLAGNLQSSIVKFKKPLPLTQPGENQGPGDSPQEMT
A1 inh – inhibitors of the anti-apoptotic protein A1, read as caspase activation. 330,000 tested, 0.066% active. MEF A1-2A-BIM cells, Caspase-Glo 3/7 luminescence, 3 h; percent of clofoctol response, vehicle zero. caspase activation, % (concentration not given with the values). AID 2462;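 active = over half of replicate activation scores above 10%, or exactly half above 10 with the replicate mean above 10; inconclusive = replicate mean below 10 yet half the replicates above 10; inactive = over half of replicates below 10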;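 also: wells of about 30 µL received 50 nL stock; many hits fall short of the cut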
B2AR ag – agonists of human beta-2 adrenergic receptor inducing internalization; P07550; Am2.2-beta2AR cells, FAP receptor internalization, flow cytometry; reference of the scale not given here; response, % (no concentration beside the values); 340,000 tested, 0.43% active; AID 504454;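 active = response above a set limit, near 3 SD of response in nonfluorescent compounds, cut at about 42% in these data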;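 also: stock transfer was 100 nL into about 11 µL; a reference agonist was the positive control; negative values mostly stem from fluorescent compounds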
rRNA inh HTS OD600 – second read-out of rRNA inh HTS, no call of its own (marks repeat the call); OD600 change, %; measured here: OD600 growth;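 optical density of the mix in the first replicate; 0 = DMSO median and -100 = no signal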
rRNA inh HTS RFP – second read-out of rRNA inh HTS, no call of its own (marks repeat the call); RFP signal change, %; measured here: RFP humanized mutant strains;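 first replicate; 0 = DMSO median and -100 = no signal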
Starred values were filed as active, the others as inactive; ? = inconclusive; . = not tested or not shown.

SMILES	ALR H2O2 inh	Calb FLC	T cruzi inh	rRNA inh HTS	rRNA inh HTS OD600	rRNA inh HTS RFP	Beta apoptosis	LANA-H2A inh	A1 inh	B2AR ag
O=C(NCc1ccc2c(c1)OCO2)C1CC(=O)N(c2ccc(F)cc2)C1 (stereo unspecified)	.	-15	-22	.	.	.	-8	2.5	-0.1	-1
CCN(CC)C(=O)c1ccc(COc2ccccc2Br)o1	1	5	2	.	.	.	-3	-5.0	0.7	-6
O=C(Nc1ncnc2sc3c(c12)CCC3)c1ccco1	3	16	-11	3	3	-0.1	.	1.4	0.3	1
Cc1ccc(C(=O)N(C)CC(=O)Nc2ccc(F)c(F)c2F)o1	.	4	.	0	4	1.0	9	-3.9	-0.3	-2
O=S(=O)(NCC1CCCO1)c1ccc2c(c1)OCCO2 (stereo unspecified)	-8	.	.	.	.	.	2	5.6	0.0	6
O=C(COc1ccc([N+](=O)[O-])cc1)N/N=C/c1cc([N+](=O)[O-])ccc1N1CCOCC1	.	-35	8	.	.	.	-9	.	-0.4	-3
O=C(Nc1ccc2c(c1)OCO2)C1CC(c2ccc(F)cc2)=NO1 (stereo unspecified)	-8	-30	-2	.	.	.	-5	-1.1	0.7	-10
COC(=O)c1cc(=O)n(CCc2ccc(OC)c(OC)c2)c(=Nc2ccc(F)c(Cl)c2)s1	.	1	48	1	11	-3.6	11	1.3	-0.4	22
CCC(=O)Nc1ccc(-c2nn3c(C)nnc3s2)cc1C	-2	-10	-9	.	.	.	-8	0.4	-1.1	60*
CC1CCCCN1S(=O)(=O)c1ccc2c(c1)CCN2C(=O)CCC(=O)O (stereo unspecified)	3	-10	3	.	.	.	-1	2.3	-1.2	4
Brc1cccc(-c2nnc3n2CCCCC3)c1	-3	-4	-18	.	.	.	-5	-2.0	-0.2	-7
CCCc1nc(N)nc2c1C(=O)CC(C)(C)C2	.	-15	-24	.	.	.	.	-3.0	-0.2	-4
Cn1c(CN2CCCC2)nc2cc(NS(=O)(=O)c3ccc(Cl)cc3)ccc21	-5	-12	16	.	.	.	0	2.9	-0.2	2
CCOC(=O)c1c(C)[nH]c(C(=O)CSc2nnc(CC(C)c3ccccc3)o2)c1C (stereo unspecified)	.	4	23	.	.	.	0	1.2	0.1	-4
COc1ccc(Br)cc1/C=N/NC(=O)c1cc(Br)ccc1O	8	-1	-23	.	.	.	-5	-0.5	0.7	.
COc1ccc(-n2nc(C)cc2N)cc1	2	24	-10	13	17	-6.0	-1	4.5	2.2	-2
Cn1nccc1C(=O)N/N=C/c1cccnc1	-11	0	-14	18	8	-0.6	-9	-1.8	-3.1	-2
O=C(CSc1nnc(CNC(=O)c2c(F)cccc2F)o1)c1ccccc1	62	-4	12	.	.	.	-10	-0.8	-0.2	5
CCC(=O)N1CCN(c2ccc(NC(=O)c3ccco3)cc2Cl)CC1	.	-7	-3	-4	-1	0.8	.	.	.	-2
O=C(c1cccc(C(F)(F)F)c1)N1CCC(=O)N(C(CO)Cc2ccccc2)CC1 (stereo unspecified)	1	10	-12	2	-2	-2.6	2	1.6	0.0	-4
Cc1cccc(CSc2ccc(-c3ccco3)nn2)c1	98*	9	-6	0	-9	0.6	2	-3.0	-1.5	-12
CCn1c(/C=C/c2cc[n+](C)cc2)nc2ccccc21	-12	2	13	25	18	-1.8	-5	0.8	1.7	-6
CCOc1cccc(CNn2cnnc2)c1OCc1ccccc1	-25	20	2	.	.	.	-1	0.7	-0.2	5
Cc1ccc(/C(O)=C2\C(=O)C(=O)N(CC(C)O)C2c2ccc(N(C)C)cc2)cc1 (stereo unspecified)	14	2	-14	.	.	.	3	2.1	-1.0	-8
COc1ccc(-c2nc3c(s2)CCc2onc(-c4ccc(OC)cc4)c2-3)cc1	-9	7	17	3	15	0.8	6	-11	-0.1	-5
CC(=O)Nc1cn(C(C)=O)c(C)n1	3	-6	-19	.	.	.	0	-3.1	1.6	.
O=C(NCc1ccccc1)C(c1ccccc1)N(Cc1cccs1)C(=O)c1cnccn1 (stereo unspecified)	6	15	7	.	.	.	-5	4.1	0.2	11
Oc1ccc(N=Nc2ccccc2C(F)(F)F)c2cccnc12	-5	98*	55*	23	2	7.2	90*	-0.8	-0.5	14
O=C(NCCSc1c[nH]c2ccccc12)c1ccc2c(c1)OCO2	.	2	-6	.	.	.	0	4.5	0.8	27
O=C(Cn1nnc(-c2cccc(C(F)(F)F)c2)n1)NC(=O)NCc1ccco1	4	-3	-11	.	.	.	1	-3.0	0.0	1
Cc1ccc(CN(C)CC(=O)NC(C)c2ccccc2)cc1 (stereo unspecified)	-1	-13	8	0	1	0.2	0	1.0	-0.1	0
CCOc1ccc(C(C)=O)cc1CN1c2ccc(S(N)(=O)=O)cc2CC1C (stereo unspecified)	79*	-1	-1	-10	-14	-0.4	0	-2.5	0.1	-6
O=C(O)c1cc(/C=C/c2ccc(N3CCOCC3)c([N+](=O)[O-])c2)nc2ccccc12	-3	11	2	-2	-1	-2.2	-4	-2.7	-6.9	8
CCOC(=O)C1=C(C)N=C2c3ccccc3C(=O)C2C1c1ccc(Cl)cc1 (stereo unspecified)	-1	-1	61*	.	.	.	-13	-1.7	-0.1	7
Cc1ccc(C(=O)C2=C(O)C(=O)N(Cc3cccnc3)C2c2ccc(Cl)cc2)o1 (stereo unspecified)	30	1	3	1	-1	2.5	-2	-4.8	-1.0	7
COC(=O)c1ccccc1NC(=O)c1cccc(NC(=O)C(C)C)c1	-2	?	11	.	.	.	2	4.8	-0.2	-5
COc1ccc(-c2nc(CN3CCN(C(=O)c4ccco4)CC3)c(C)o2)c(F)c1	-6	1	0	-8	-8	-5.1	.	-2.7	0.3	0
CCOC(CCNC(=O)c1cn(-c2cccc(C)n2)cn1)OCC	-5	25	-4	.	.	.	-3	0.8	0.6	0
COc1ccc(-c2noc(-c3ccc(Br)o3)n2)cc1	-1	1	-6	1	17	1.1	-4	-7.2	-1.7	-5
Fc1cccc(Cl)c1CSc1ccc2nnc(-c3ccccn3)n2n1	-1	16	22	4	-13	-2.2	1	-0.5	-0.1	-10
CCn1c2ccccc2c2nnc(SCCN3CCCCC3)nc21	-12	0	36	-11	2	7.1	.	7.0	1.3	-8
CCc1ccc(C(C)NC(=O)c2ccncc2)cc1 (stereo unspecified)	-1	1	-1	2	3	-2.4	2	23*	-0.4	4
COc1cnc(SCc2ccc(Cl)cc2)nc1Cl	98*	-6	11	.	.	.	-3	0.5	0.9	4
Cc1ccn2c(-c3n[nH]c(=S)n3Cc3ccccc3)c(C)nc2c1	19	4	-24	.	.	.	-7	0.3	-0.4	12
COc1ccc(C2/C(=C(\O)c3cccc(OC)c3)C(=O)C(=O)N2c2ccccn2)cc1 (stereo unspecified)	2	24	0	5	12	0.3	-5	1.8	-0.3	5
O=C1CN(C(=O)C2CCC(=O)N(CCc3ccc(Cl)cc3)C2)CCN1 (stereo unspecified)	-16	-5	-9	21	21	1.7	-4	4.5	0.0	-16
Cc1ccc(CNC(=O)[C@H](C)NC(=O)C2CCN(C(=O)[C@@H]3CCCN3C(=O)OC(C)(C)C)CC2)cc1	-7	1	-3	6	-3	-5.4	3	3.5	-0.1	3
O=c1c2ccccc2[nH]c(=S)n1CCN1CCCCC1	56	4	10	11	15	2.9	2	-6.4	0.1	8
CN(C)c1cc(-c2ccccc2)nc(N)n1	-8	9	-1	6	0	1.6	0	-0.6	0.0	2
CSc1ncccc1C(=O)Nc1ccc2c(c1)OCO2	-8	.	.	4	16	-1.6	2	1.9	-1.3	6

(next part)
SMILES	ALR H2O2 inh	Calb FLC	T cruzi inh	rRNA inh HTS	rRNA inh HTS OD600	rRNA inh HTS RFP	Beta apoptosis	LANA-H2A inh	A1 inh	B2AR ag
CN1CCN(c2ccc(S(=O)(=O)N3CCOCC3)cc2NC(=O)CC(C)(C)C)CC1	-6	.	.	.	.	.	-4	-2.0	0.1	0
COc1cc(C(=O)OCC(=O)Nc2cc(C)on2)c([N+](=O)[O-])cc1OC	-2	-5	-2	6	2	-1.8	-5	0.5	1.0	-2
COc1cccc(-c2cc(C(=O)NCc3cccs3)no2)c1	-11	-2	4	-2	-7	-1.1	3	-5.3	-2.1	1
Cc1cc(Br)c(S(=O)(=O)n2nnc3ccccc32)cc1C	-2	22	15	.	.	.	.	-3.1	-0.5	-2
Cc1cc(Cl)c2oc(C(=O)N(C)Cc3ccon3)c(C)c2c1	-3	-12	34	-30	-40	-9.2	2	-0.2	-3.8	-4
COc1ccc(S(=O)(=O)N2CCC(NC(=O)Nc3ccc(C)cc3)CC2)cc1	25	-5	2	.	.	.	-3	-2.2	0.6	-7
COc1cc(C)c(Br)cc1S(=O)(=O)N1CCCC1	-13	0	5	.	.	.	-4	0.7	0.7	-4
O=C(c1cccc(F)c1)N1CCN(C(=O)c2cc(-c3ccc(Cl)cc3Cl)on2)CC1	-20	22	30	.	.	.	.	-4.9	1.1	-5
O=C(CCC1CCCN(C(=O)C2(c3ccccc3)CC2)C1)N1CCN(c2ccccn2)CC1 (stereo unspecified)	2	7	20	-2	6	2.3	1	3.5	-0.9	-8
Cc1cc(S(=O)(=O)N2CCN(c3ccc(F)cc3)CC2)ccc1-n1cnnn1	0	-3	3	1	4	-2.6	1	1.2	0.1	1
COc1ccccc1C(=O)N/N=C(\C)CC(=O)Nc1ccccc1NC(C)=O	5	1	0	20	10	3.5	.	0.7	0.3	18
COC(=O)c1cc(C(=O)OC)cc(S(=O)(=O)Nc2ccc(Cl)c(N)c2)c1	-16	-4	-8	.	.	.	-7	-3.0	0.0	4
Cn1c(=O)c2c(nc(SCCN3CCOCC3)n2C)n(C)c1=O	-2	17	-10	15	5	2.2	6	-2.0	-7.7	-2
Cc1ccc([N+](=O)[O-])c(OCC(O)CNC(C)(C)C)c1 (stereo unspecified)	.	-11	-5	-1	10	1.7	6	-0.4	-0.7	0
O=C1c2ccccc2C(=O)N1CCc1nc(-c2ccc(Cl)cc2)no1	1	12	5	.	.	.	-5	-1.1	-0.5	8
CN(C(=O)CSc1ncccc1C(=O)O)c1ccccc1	-2	-1	0	.	.	.	2	7.1	0.0	2
Nc1c(-c2ccccc2)cnn1C1CCS(=O)(=O)C1 (stereo unspecified)	21	-3	-13	.	.	.	-4	1.8	-0.3	0
CCCCCc1nnc(NC(=O)C2CCCO2)s1 (stereo unspecified)	-7	4	6	.	.	.	-4	6.3	-1.3	-8
COc1ccc(NC(=O)C(c2ccc(OC)cc2)N(C)C(=O)CC2NC(=O)NC2=O)cc1 (stereo unspecified)	0	?	-4	.	.	.	-5	1.7	0.0	1
COc1ccc(CSc2nc(C)cc(=O)[nH]2)cc1	-5	.	.	.	.	.	3	5.0	-1.4	2

Screening results as filed in PubChem.

Not all compounds are listed; count on the stated rates, not on these rows.
